JMJD2E inh: inhibitors of human JMJD2E histone demethylase. B2RXH2. JMJD2E catalytic domain, FDH-coupled NADH fluorescence (FDH is formaldehyde dehydrogenase). Potency, µM (titrated, usually from 57.1 µM), without a hit: at the highest dose activity change, negative = inhibition, usual class: inhibitors. actives 1.6% (n = 230,000);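 note: 0% = wells with enzyme and -100% = buffer wells without enzyme; nearly all actives have a fitted effect of over 50% in size; many of its hits are not listed in these tables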
RECQ1 helicase: inhibitors of human RECQ1 DNA helicase | RECQ1 DNA unwinding, red fluorescence kinetic read | Potency, µM (series often up to 57.3 µM), without a hit: at the top dose activity, negative = inhibition, actives largely listed as inhibitors | actives 0.54% (n = 240,000); active = well fitted inhibition curve with a large enough effect; inconclusive = small, poorly fitted or top-dose-only effect;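 note: plate controls were vehicle for no effect and no enzyme for full effect; nearly all actives have a fitted effect of over 30% in size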
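RECQ1T1 50 nM; forked duplex (20 bp + 30-nt ss tails) 200 nM, ATP 2 mM final; pH 8.0, 2 mM MgCl2, 2.5 ug/ml poly(dI-dC); 15 min compound preincubation; discontinuous kinetic read over 2 h at RT.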
Lamin A splicing: LMNA splicing modulation; HeLa LMNA splicing GFP/RFP minigene ratio, 48 h; Potency, µM (titrated, usually from 46.1 µM), for the others: top-dose ratio change, negative = inhibition, usual class: inhibitors; actives 0.01% (n = 200,000); active = well fitted inhibition curve with a large enough effect in the signal ratio, with a control signal flat, not every such curve was filed as active; inconclusive = small, poorly fitted or top-dose-only effect, or effect the other way, or a change in a side signal; the % refers to the signal ratio
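S3 HeLa cells stably expressing lamin A-EGFP splicing minigene plus DsRed2, 600 cells/well, 48 h compound exposure at 37C. Laser-scanning cytometry; analysed as GFP (500-530 nm)/RFP (575-640 nm) total intensity ratio; 0.5% DMSO vehicle.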
ALDH1A1 inh: blocks purified human ALDH1A1 activity. AID 1030. actives 7.3% (n = 220,000). Purified ALDH1A1, NADH fluorescence, propionaldehyde substrate. Potency, µM (top dose mostly 75.3 µM), for the others: top-dose activity, negative = inhibition, usual class: inhibitors. P00352;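 note: plate controls were no enzyme wells and a reference inhibitor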
Target sequence (P00352 whole entry, looked up): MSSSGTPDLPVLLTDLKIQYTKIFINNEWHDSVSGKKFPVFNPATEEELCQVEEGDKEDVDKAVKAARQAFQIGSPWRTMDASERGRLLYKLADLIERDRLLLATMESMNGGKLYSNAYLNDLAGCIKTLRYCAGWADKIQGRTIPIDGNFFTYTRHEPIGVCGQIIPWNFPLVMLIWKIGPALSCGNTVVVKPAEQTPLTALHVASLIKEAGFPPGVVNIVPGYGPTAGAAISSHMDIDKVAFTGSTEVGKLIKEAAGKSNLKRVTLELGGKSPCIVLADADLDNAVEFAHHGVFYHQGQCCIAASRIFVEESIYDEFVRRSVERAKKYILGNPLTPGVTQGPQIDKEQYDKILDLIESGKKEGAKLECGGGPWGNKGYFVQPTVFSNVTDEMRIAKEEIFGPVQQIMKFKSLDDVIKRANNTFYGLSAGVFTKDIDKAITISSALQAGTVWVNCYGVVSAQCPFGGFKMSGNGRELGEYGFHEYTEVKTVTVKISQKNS
* marks the source's active call; other numbers are inactive results; i = inactive; ? = inconclusive; · = no result given; & = joins results of further samples; ! = a repeat was not active; [ ] = dose if it differs, or a comment. Unless noted, calls come from the whole dose curve; as a rule, active = well fitted inhibition curve with a large enough effect (not every such curve was filed as active); inconclusive = small, poorly fitted or top-dose-only effect, or another doubt; inactive = no such curve, though single readings can be large or run the other way. Unless noted, % is set by controls: 0 for no effect and ±100 for the full control effect; potency is the fitted concentration of half-maximal effect. Not all compounds are listed. The share of hits here may be higher or lower than overall.

Screens by letter: A = JMJD2E inh; B = RECQ1 helicase; C = Lamin A splicing; D = ALDH1A1 inh
1: CC(=O)OCC(=O)[C@@]1(O)[C@H](C)C[C@H]2[C@@H]3CCC4=CC(=O)C=C[C@]4(C)[C@@]3(F)[C@@H](O)C[C@@]21C
  A: -2.5%; B: -10.8%; C: -2.9%; D: -4.4%
2: c1ccc(-c2noc(-c3ccco3)n2)nc1
  A: 0.8%; B: -6.4%; C: -13.9%; D: -0.6%
3: CCN1CCN(C(=O)N[C@H](C(=O)N[C@@H]2C(=O)N3C(C(=O)O)=C(CSc4nnnn4C)CS[C@@H]23)c2ccc(O)cc2)C(=O)C1=O
  A: 1.8%[25.5 µM]; B: i; C: 2.2%; D: 9.7%[20.9 µM]
4: O=C1CC[C@@H](C(=O)O)N1
  A: ·; B: ·; C: ?; D: ·
5: C[C@@H]1C[C@@H]2[C@H]3CCC4=CC(=O)C=C[C@]4(C)[C@]3(F)[C@@H](O)C[C@@]2(C)[C@@]1(O)C(=O)CO
  A: 3.4%; B: -2.9%; C: ·; D: 1.7%
6: CCn1nc(C(=O)O)c(=O)c2cc3c(cc21)OCO3
  A: -28.9%; B: -22.9%; C: ?; D: -2.4%
7: COc1ccc(C2Sc3ccccc3N(CCN(C)C)C(=O)[C@@H]2OC(C)=O)cc1 (stereo partly specified)
  A: ·; B: 3.7%&3.1%; C: ·; D: ?
8: CC/C(=C(/c1ccccc1)c1ccc(OCCN(C)C)cc1)c1ccccc1
  A: ·; B: -7.6%; C: ·; D: ·
9: CC(C)OC(=O)C(C)(C)Oc1ccc(C(=O)c2ccc(Cl)cc2)cc1
  A: 5.1%; B: -12.8%; C: ?; D: -2.0%
10: COc1ccc([C@H]2Sc3ccccc3N(CCN(C)C)C(=O)[C@H]2OC(C)=O)cc1
  A: -0.3%[25.5 µM]; B: -9.0%[25.9 µM]; C: -10.0%; D: 16.1%[20.9 µM]
11: NCC(O)c1ccc(O)c(O)c1 (stereo unspecified)
  A: 12.6µM*; B: -11.4%; C: -25.6%; D: 4.1%
12: CCN(CC)CC#CCOC(=O)[C@@](O)(c1ccccc1)C1CCCCC1
  A: 6.8%[25.5 µM]; B: i; C: -2.8%; D: 1.6%[20.9 µM]
13: O=C(c1ccccc1)c1ccccc1
  A: ·; B: -0.4%&-14.6%; C: ·; D: 25.1µM*!

ALDH1A1 inh: hit marks shown above
Screens by letter: A = JMJD2E inh; B = RECQ1 helicase; C = Lamin A splicing; D = ALDH1A1 inh
13: O=C(c1ccccc1)c1ccccc1
  A: ·; B: -0.4%&-14.6%; C: ·; D: 25.1µM*!

Ordered by the number under Lamin A splicing (highest first): some entries from above
nr | SMILES | Lamin A splicing
3 | CCN1CCN(C(=O)N[C@H](C(=O)N[C@@H]2C(=O)N3C(C(=O)O)=C(CSc4nnnn4C)CS[C@@H]23)c2ccc(O)cc2)C(=O)C1=O | 2.2%
12 | CCN(CC)CC#CCOC(=O)[C@@](O)(c1ccccc1)C1CCCCC1 | -2.8%
1 | CC(=O)OCC(=O)[C@@]1(O)[C@H](C)C[C@H]2[C@@H]3CCC4=CC(=O)C=C[C@]4(C)[C@@]3(F)[C@@H](O)C[C@@]21C | -2.9%

Compounds from the list above that contain fluorine (2):
Screens by letter: A = JMJD2E inh; B = RECQ1 helicase; C = Lamin A splicing; D = ALDH1A1 inh
1: CC(=O)OCC(=O)[C@@]1(O)[C@H](C)C[C@H]2[C@@H]3CCC4=CC(=O)C=C[C@]4(C)[C@@]3(F)[C@@H](O)C[C@@]21C
  A: -2.5%; B: -10.8%; C: -2.9%; D: -4.4%
5: C[C@@H]1C[C@@H]2[C@H]3CCC4=CC(=O)C=C[C@]4(C)[C@]3(F)[C@@H](O)C[C@@]2(C)[C@@]1(O)C(=O)CO
  A: 3.4%; B: -2.9%; C: ·; D: 1.7%

Given with two lines to a compound: part of the list above
Every second line gives: JMJD2E inh | RECQ1 helicase | Lamin A splicing | ALDH1A1 inh
(6) CCn1nc(C(=O)O)c(=O)c2cc3c(cc21)OCO3
  -28.9% | -22.9% | ? | -2.4%
(10) COc1ccc([C@H]2Sc3ccccc3N(CCN(C)C)C(=O)[C@H]2OC(C)=O)cc1
  -0.3%[25.5 µM] | -9.0%[25.9 µM] | -10.0% | 16.1%[20.9 µM]

High-throughput results deposited in PubChem by National Center for Advancing Translational Sciences (NCATS).
